Assay outcomes: PubChem BioAssay, ICCB-Longwood Screening Facility, Harvard Medical School
UCH37 DUB inh: blocks the human deubiquitinase UCH37; Q9Y5K5; purified proteasome/UCH37, Ub-AMC cleavage fluorescence; inhibition, % (test concentration not listed); actives 0.33% (n = 330,000);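 active means mean of two replicates above 20%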;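 further: 0% = compound-free wells with enzyme and 100% = wells lacking proteasome; stock transfer was 100 nL into about 20 µL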
Target sequence (Q9Y5K5 whole entry, looked up): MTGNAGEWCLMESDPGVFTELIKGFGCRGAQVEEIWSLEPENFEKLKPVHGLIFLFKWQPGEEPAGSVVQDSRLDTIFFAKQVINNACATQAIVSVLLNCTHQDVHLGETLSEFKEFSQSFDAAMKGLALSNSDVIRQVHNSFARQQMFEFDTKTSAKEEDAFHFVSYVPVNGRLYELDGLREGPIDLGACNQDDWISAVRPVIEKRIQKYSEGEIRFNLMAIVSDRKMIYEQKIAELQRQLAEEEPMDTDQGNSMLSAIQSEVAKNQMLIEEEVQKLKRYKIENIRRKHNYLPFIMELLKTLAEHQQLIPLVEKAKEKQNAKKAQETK
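assay system = human UCH37 enzyme supplied as purified proteasome complex | amount = proteasome at 0.15 nM in the dispensed enzyme solution | schedule = 30 min compound-proteasome preincubation then 25 min substrate reaction, room temperature | measured by = fluorescence, ex 355 nm, em 460 nm | benchmarks = no-proteasome wells (full inhibition) and compound-free wells (no inhibition)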
E coli growth: blocks Escherichia coli growth; OD600, 23 h; hits give low values; OD600 absorbance (concentration not given with the values); actives 0.21% (n = 330,000);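 active means OD600 absorbance below the run mean of sample wells minus 3.6 SD, in any replicate, cut at about 0.56 in these data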;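 further: stock transfer was 300 nL into about 60 µL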
* marks the source's active call; other numbers are inactive results. Some of the compounds tested. The share of hits here may be higher or lower than overall.

E coli growth | UCH37 DUB inh | mol
0.659 | 3.3 | CCCc1n[nH]c2c1C(=NO)CC(c1ccccc1)C2 (stereo unspecified)
0.729 | 3.6 | COc1nc(NN=Cc2ccc(-c3ccccc3[N+](=O)[O-])o2)nc(N2CCOCC2)n1
0.706 | 6.0 | COc1ccc(C=NNC(=O)c2ccoc2C)cc1COc1c(C)cccc1C
0.729 | 5.8 | COC(=O)C=c1sc(=C(C#N)C(=O)NCc2ccccc2)n(-c2ccccc2)c1=O
0.64 | -1.0 | COc1c(Br)cc(C=Nn2c(-c3ccccc3)n[nH]c2=S)c(O)c1Br
0.668 | 2.1 | N#CCCn1cc(C=NO)c(-c2ccccc2)n1
0.796 | -186.5 | O=C(NN=Cc1ccc(F)c(F)c1)c1cc2c(s1)-c1ccccc1CC2
0.665 | 11.6 | C/C(C=Nn1c(-c2cc(C)[nH]n2)n[nH]c1=S)=C\c1ccco1
0.695 | 2.1 | O=C(COc1ccccc1[N+](=O)[O-])NN=Cc1ccncc1
0.7 | -1.0 | O=C(NN=Cc1ccc2c(c1)OCO2)c1cccc(NC(=O)c2ccccc2Cl)c1
0.66 | 1.0 | Cc1nn(-c2ccccc2)c(Cl)c1C=NNC(=O)c1ccc(CNc2ccccc2)o1
0.739 | 7.8 | Cn1cc([N+](=O)[O-])c(C(=O)NN=Cc2c[nH]c3ccccc23)n1
0.654 | 0.5 | COc1ccccc1C(=O)NN=C(C)CC(=O)Nc1ccccn1
0.656 | 19.8 | CCOC(=O)C(C#N)=NNc1ccc(S(=O)(=O)Nc2cc(OC)nc(OC)n2)cc1
0.704 | -104.1 | COc1cc2nc3c4ccccc4n(CC#N)c3nc2cc1OC
0.763 | 4.2 | C/C(C=NN1CCN(c2ccccc2)CC1)=C\c1ccccc1
0.718 | 4.1 | C=C(C)C1CC=C(C)C(=NNC(=O)c2cccs2)C1 (stereo unspecified)
0.657 | 4.2 | O=C1NCCCC1C(=O)NN=Cc1cccc(Cl)c1 (stereo unspecified)
0.707 | -3.3 | O=C1c2ccccc2NC(c2ccco2)N1N=Cc1ccco1 (stereo unspecified)
0.697 | 11.6 | O=C(NN=C1CCCc2oc(C(=O)O)cc21)c1ccccc1
0.677 | 4.7 | COC(=O)CC=N/N=C1/NC(=O)/C(=C/C(=O)O)S1
0.65 | 3.8 | CCOc1ccc(/C=C\C(C)=NO)cc1
0.727 | 2.2 | COc1ccc(CC(=NO)c2ccc(OC)cc2)cc1
0.704 | 1.5 | CCOC(=O)c1c(C)[nH]c(C(=O)NN=Cc2ccc(OC)c(OC)c2)c1C
0.718 | 0.4 | O=C(CSCc1ccccc1Br)NN=Cc1ccccc1C(=O)O
0.709 | 4.3 | O=C(CN1CCN(S(=O)(=O)c2ccc(Br)cc2)CC1)NN=Cc1ccc(Cl)c([N+](=O)[O-])c1
0.722 | 5.9 | Cc1[nH]c(=O)[nH]c(=O)c1C=NNC(=O)[C@@H](N)CC(C)C
0.703 | 2.0 | O=C(CN1CCCN(S(=O)(=O)c2ccc(Br)cc2)CC1)Nc1ccc2c(c1)OCO2
0.692 | 4.2 | CON=Cc1ccc(Sc2ccccc2N)c([N+](=O)[O-])c1
0.682 | 3.5 | CC1(C)SC(=S)N(N=Cc2cccnc2)C1N(O)C(=O)Nc1ccccc1 (stereo unspecified)
0.65 | 6.2 | COc1ccc(C=NN=C(N)c2nonc2N)cc1
0.709 | 4.4 | O=[N+]([O-])c1ccc(Cl)c(C=Nn2c(-c3cccnc3)n[nH]c2=S)c1
0.629 | -19.6 | CSc1ccc(C=NNC(=O)c2ccc(C)c(C)c2)cc1
0.71 | 4.4 | O=C(COc1ccc(Cl)cc1Cl)NN=C1CCCc2ccccc21
0.7 | 5.8 | CCOc1ccc2ccccc2c1C=NNC(=O)CC1(C)OCCCO1
0.748 | 4.8 | CCNC(=S)NN=C(C)c1cccc([N+](=O)[O-])c1
0.667 | 6.6 | COc1ccc(C=NNC(=O)c2ccco2)cc1Cn1nc(C)cc1C
0.601 | 3.5 | O=C(O)c1ccc(C=NNC(=O)c2ccc(Br)cc2)cc1
0.682 | 7.2 | COc1cccc(OCCn2cc(C=NNC(=O)c3ccncc3)c3ccccc32)c1
0.69 | 4.9 | COc1ccc(Cl)c(NC(=O)CC(C)=NNC(=O)CCc2ccccc2)c1
0.705 | 8.2 | COc1cc(C(=O)NN=C(C)c2ccc3c(c2)OCO3)cc(OC)c1OC
0.694 | -151.5 | CC(CC(=O)Nc1ccc2c(c1)OCO2)=NNC(=O)c1ccccc1N
0.644 | -0.3 | O=C(NN=Cc1c(F)c(F)c(F)c(F)c1F)c1cccc(S(=O)(=O)N2CCOCC2)c1
0.674 | -2.2 | COc1ccc2ccccc2c1C=NO
0.589 | 3.6 | CCc1nnc(NN=Cc2c(C)[nH]c3ccccc23)n1N
0.674 | 6.9 | Cn1nccc1C(=O)NN=Cc1ccccc1[N+](=O)[O-]
0.564 | -75.7 | CC=NNC(=O)c1cc(Br)ccc1O
0.7 | 2.7 | COc1ccc(C=NNc2cc(N3CCOCC3)nc(C)n2)c(OC)c1
0.714 | 4.1 | CCC(=NNc1ccccc1C)c1cnnc(SC)n1
0.67 | 0.0 | CC(=NNC(=O)c1ccc(=O)[nH]n1)c1cccnc1
0.664 | 3.6 | Cc1ccccc1C(=O)Nc1nnc(CC(=O)NN=Cc2ccco2)s1
0.641 | 9.5 | Cc1ccc(NC(=S)NN=C2CC3CC=CC23)c(C)c1 (stereo unspecified)
0.662 | 4.8 | Cc1ccc(S(=O)(=O)NN=Cc2cc3c(cc2[N+](=O)[O-])OCO3)cc1
0.65 | 6.8 | S=c1[nH]nc(-c2cc(-c3ccccc3)n[nH]2)n1N=C/C=C/c1ccco1
0.639 | -167.3 | CCCC12CN3CCN(CC(C3)C1=NNC(=O)c1ccccc1N)C2
0.693 | 1.1 | CCOC(=O)c1sc2ncn(N=Cc3ccc(O)cc3)c(=O)c2c1C

Remaining list, next part
E coli growth | UCH37 DUB inh | mol
0.695 | 3.7 | CC(=NNC(=O)c1ccc(NC(=O)c2ccc(F)cc2)cc1)c1ccccc1
0.597 | 1.3 | CCC(Cc1ccccc1)=NNC(=O)c1cc([N+](=O)[O-])cc([N+](=O)[O-])c1
0.663 | 3.6 | CCC(C)[C@@H](N)C(=O)NN=Cc1ccc2ncccc2c1 (stereo partly specified)
0.698 | 1.2 | COCc1c(Br)c(C)nc(OCC(=O)NN=Cc2cc(C)n(-c3ccc([N+](=O)[O-])cc3)c2C)c1C#N
0.706 | 1.5 | Nn1cnnc1NN=Cc1ccc(F)cc1
0.714 | 1.7 | C/C(C=NNc1nc(C)cc(C)n1)=C\c1ccc(C(C)C)cc1
0.696 | 4.3 | N#CCC(=O)NN=Cc1cn(Cc2ccc(Cl)cc2Cl)c2ccccc12
0.7 | 2.4 | O=S(=O)(NN=Cc1ccc(N2CCOCC2)cc1)c1ccc(Br)cc1

Profiles, looked up by structure.
CCC(C)[C@@H](N)C(=O)NN=Cc1ccc2ncccc2c1 (stereo partly specified) reads E coli growth: 0.663; UCH37 DUB inh: 3.6
N#CCC(=O)NN=Cc1cn(Cc2ccc(Cl)cc2Cl)c2ccccc12 reads E coli growth: 0.696; UCH37 DUB inh: 4.3
COCc1c(Br)c(C)nc(OCC(=O)NN=Cc2cc(C)n(-c3ccc([N+](=O)[O-])cc3)c2C)c1C#N reads E coli growth: 0.698; UCH37 DUB inh: 1.2

Next section
E coli growth | UCH37 DUB inh | mol
0.662 | 2.6 | COc1ccc(CN2C(=O)CSC2=NN=Cc2cccs2)cc1
0.691 | 7.0 | Clc1ccc(NN=Cc2cccs2)nn1
0.668 | -0.1 | C/C(C=NNC(=O)c1cc(-c2ccc(C)o2)[nH]n1)=C\c1ccccc1
0.642 | 4.9 | Cc1cc(C)n(CCC(=O)NN=Cc2ccc(Br)c([N+](=O)[O-])c2)n1

28 entries from above, in markdown:
| molecule | E coli growth | UCH37 DUB inh |
| --- | --- | --- |
| COc1cc(C(=O)NN=C(C)c2ccc3c(c2)OCO3)cc(OC)c1OC | 0.705 | 8.2 |
| CC(CC(=O)Nc1ccc2c(c1)OCO2)=NNC(=O)c1ccccc1N | 0.694 | -151.5 |
| O=C(NN=Cc1c(F)c(F)c(F)c(F)c1F)c1cccc(S(=O)(=O)N2CCOCC2)c1 | 0.644 | -0.3 |
| COc1ccc2ccccc2c1C=NO | 0.674 | -2.2 |
| CCc1nnc(NN=Cc2c(C)[nH]c3ccccc23)n1N | 0.589 | 3.6 |
| Cn1nccc1C(=O)NN=Cc1ccccc1[N+](=O)[O-] | 0.674 | 6.9 |
| CC=NNC(=O)c1cc(Br)ccc1O | 0.564 | -75.7 |
| COc1ccc(C=NNc2cc(N3CCOCC3)nc(C)n2)c(OC)c1 | 0.7 | 2.7 |
| CCC(=NNc1ccccc1C)c1cnnc(SC)n1 | 0.714 | 4.1 |
| CC(=NNC(=O)c1ccc(=O)[nH]n1)c1cccnc1 | 0.67 | 0.0 |
| Cc1ccccc1C(=O)Nc1nnc(CC(=O)NN=Cc2ccco2)s1 | 0.664 | 3.6 |
| Cc1ccc(NC(=S)NN=C2CC3CC=CC23)c(C)c1 (stereo unspecified) | 0.641 | 9.5 |
| Cc1ccc(S(=O)(=O)NN=Cc2cc3c(cc2[N+](=O)[O-])OCO3)cc1 | 0.662 | 4.8 |
| S=c1[nH]nc(-c2cc(-c3ccccc3)n[nH]2)n1N=C/C=C/c1ccco1 | 0.65 | 6.8 |
| CCCC12CN3CCN(CC(C3)C1=NNC(=O)c1ccccc1N)C2 | 0.639 | -167.3 |
| CCOC(=O)c1sc2ncn(N=Cc3ccc(O)cc3)c(=O)c2c1C | 0.693 | 1.1 |
| CC(=NNC(=O)c1ccc(NC(=O)c2ccc(F)cc2)cc1)c1ccccc1 | 0.695 | 3.7 |
| CCC(Cc1ccccc1)=NNC(=O)c1cc([N+](=O)[O-])cc([N+](=O)[O-])c1 | 0.597 | 1.3 |
| CCC(C)[C@@H](N)C(=O)NN=Cc1ccc2ncccc2c1 (stereo partly specified) | 0.663 | 3.6 |
| COCc1c(Br)c(C)nc(OCC(=O)NN=Cc2cc(C)n(-c3ccc([N+](=O)[O-])cc3)c2C)c1C#N | 0.698 | 1.2 |
| Nn1cnnc1NN=Cc1ccc(F)cc1 | 0.706 | 1.5 |
| C/C(C=NNc1nc(C)cc(C)n1)=C\c1ccc(C(C)C)cc1 | 0.714 | 1.7 |
| N#CCC(=O)NN=Cc1cn(Cc2ccc(Cl)cc2Cl)c2ccccc12 | 0.696 | 4.3 |
| O=S(=O)(NN=Cc1ccc(N2CCOCC2)cc1)c1ccc(Br)cc1 | 0.7 | 2.4 |
| COc1ccc(CN2C(=O)CSC2=NN=Cc2cccs2)cc1 | 0.662 | 2.6 |
| Clc1ccc(NN=Cc2cccs2)nn1 | 0.691 | 7.0 |
| C/C(C=NNC(=O)c1cc(-c2ccc(C)o2)[nH]n1)=C\c1ccccc1 | 0.668 | -0.1 |
| Cc1cc(C)n(CCC(=O)NN=Cc2ccc(Br)c([N+](=O)[O-])c2)n1 | 0.642 | 4.9 |
